High-throughput results from PubChem BioAssay.
D2 agonist: activates the human D2 dopamine receptor; P14416; DiscoveRx PathHunter D2 beta-arrestin, luminescence, 90 min; 100% = 57 uM dopamine signal; activation, % (no concentration beside the values); 360,000 tested, 0.084% active; AID 624465; in the data active = activation above about 40%; inconclusive = about 15% to 40%; inactive = below about 15%; further: compound concentration not given in the record; the text of the record calls up to 30% inactive
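DiscoveRx PathHunter D2 beta-arrestin cells (2,100/well) attached overnight, then compound-stimulated 90 min at 37 C in HBSS/10 mM HEPES/0.1% Tween-20 buffer; beta-galactosidase complementation read by luminescence after 1 h at ambient temperature. Dopamine 57 uM final (EC100) as control.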
CtBP-E1A inh: CtBP/E1A binding inhibition; AID 651724; activity change, % (no concentration beside the values); 340,000 tested, 0.49% active; AlphaScreen GST-E1A/His-CtBP binding, 1536-well; stronger effect = lower value; control for the full effect not named in the record; in the data active means activity change below about -65%; inconclusive means about -30% to -65%; inactive means above about -30%; further: on the % scale 0 is the no-effect control and ±100 the full control effect; compound concentration not given in the record
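Protein mix (5X: 125 nM each GST-E1A, His-CtBP) was incubated with pinned compound 2 h at 37 deg C in dark, in 50 mM Tris pH 8.0 buffer with 300 mM NaCl. Glutathione donor and nickel acceptor beads followed; AlphaScreen signal read after 1 h.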
D2 potentiator: human D2 receptor positive allosteric modulation | P14416 | DiscoveRx D2 beta-arrestin cells, luminescence, 90 min; 100% = 57 uM dopamine signal | potentiation, % (no concentration beside the values) | 360,000 tested, 0.23% active; active = potentiation of 50% or more; inconclusive = 30% to 50%; inactive = 30% or less;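 further: compound concentration not given in the record; tested on top of an EC20 dose of dopamine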
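PathHunter D2 cells, attached overnight at 37 deg C, received compound in DMSO plus dopamine at EC20 (50 nM final) for 90 min at 37 deg C. Beta-arrestin recruitment was read as luminescence after 1 h with detection reagent at ambient temperature.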
Six1-Eya2 inh: Six1/Eya2 interaction inhibition. activity change, % (no concentration beside the values). Q15475+O00167. 360,000 tested, 0.56% active. AlphaScreen GST-Six1/His-Eya2 binding, biochemical; stronger effect = lower value; control for the full effect not named in the record. AID 651725; in the data active = activity change below about -65%; inconclusive = about -30% to -65%; inactive = above about -30%; further: on the % scale 0 is the no-effect control and ±100 the full control effect; compound concentration not given in the record
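AlphaScreen luminescence read after one hour at 37 °C in darkness. Pin-transferred compounds met GST-Six1 and His-Eya2 protein (5X stock 250 nM/500 nM) plus glutathione donor and Ni-chelate acceptor beads (5X, 50 ug/mL).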
PINK1 expr mod: PINK1 expression modulation; PINK1 immunofluorescence, high-content cytometry, 24 h; Potency, µM (highest dose often 76.6 µM), without a hit: at the top dose activation (PINK1 increase), hits mostly activators; 410,000 tested, 0.2% active; AID 624263; active = well fitted activation curve with a large enough effect; inconclusive = small, poorly fitted or top-dose-only effect; inactive = flat fitted curve, though single readings scatter; cell line not stated here;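 further: potency means the concentration at half of the fitted maximal effect; % of control where 0% means no effect; nearly all actives have a fitted effect of over 65% in size; a mitochondrial uncoupler was the plate control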
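Fluorescence from anti-PINK1 antibody, together with nuclear and cell stains, was scanned on a laser-scanning cytometer. Before staining, stable-line cells were incubated 24 hours with compounds at 5 concentrations; primary antibody 12 h at 10 degrees C.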
TRPML1 agonist: activates the human TRPML1 channel; TRPML1-expressing cells, Ca2+ dye fluorescence, FDSS; host cell line not named in the record; reference of the full effect not given here; Q9GZU1; AID 624414; 410,000 tested, 0.12% active; activation, % (test concentration not listed); in the data active = activation above about 50%; inconclusive = about 30% to 50%; inactive = below about 30%; further: 0% is about no effect; the text of the record puts the active cut at 80%
Target sequence (Q9GZU1 whole entry, looked up): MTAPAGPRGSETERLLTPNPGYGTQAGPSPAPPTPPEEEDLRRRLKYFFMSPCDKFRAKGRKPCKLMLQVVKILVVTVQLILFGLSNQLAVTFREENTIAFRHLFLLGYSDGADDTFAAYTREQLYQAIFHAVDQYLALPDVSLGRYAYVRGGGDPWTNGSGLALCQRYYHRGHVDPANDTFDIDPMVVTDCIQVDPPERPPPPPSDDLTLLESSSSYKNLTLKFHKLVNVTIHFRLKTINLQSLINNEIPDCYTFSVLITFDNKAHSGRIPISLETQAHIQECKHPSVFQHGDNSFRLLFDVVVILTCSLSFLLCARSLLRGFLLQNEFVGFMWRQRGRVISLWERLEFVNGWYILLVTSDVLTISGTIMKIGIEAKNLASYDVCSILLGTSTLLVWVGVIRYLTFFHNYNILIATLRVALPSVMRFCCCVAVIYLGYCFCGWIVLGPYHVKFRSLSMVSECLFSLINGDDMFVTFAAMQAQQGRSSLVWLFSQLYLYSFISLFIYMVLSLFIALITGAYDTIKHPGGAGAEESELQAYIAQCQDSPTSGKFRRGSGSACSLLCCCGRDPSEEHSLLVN
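In this qHTS format, compounds were pin-transferred onto Ca8-dye-loaded TRPML1-DL cells induced with Tet overnight, and intracellular Ca2+ fluorescence was recorded kinetically for 110 s after a 10 s baseline. A subsequent 4uM final 54-4 (EC80) addition followed by a second 110 s read served as the antagonist phase.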
Active calls of the source: *; ? = inconclusive; & = joins results of further samples; [ ] = another dose, or the depositor's remark.

Key to letters – A = D2 agonist; B = CtBP-E1A inh; C = D2 potentiator; D = Six1-Eya2 inh; E = PINK1 expr mod; F = TRPML1 agonist
> Cc1cc(N2CCOCC2)c(F)cc1C(=O)c1ccccc1
  A = -1.0 | B = 14 | C = -3 | D = 3 | E = -1.7% | F = 0.6
> CN(C(=O)c1ccc(NC(=O)Cc2ccc(NC(=O)C3CCCN(S(=O)(=O)c4cccc([N+](=O)[O-])c4)C3)cc2)cc1)C1CCCC1 (configuration not stated)
  A = 5.1 | B = -29 | C = -9 | D = -6 | E = -0.3% | F = 1.2
> CCc1ccccc1NC(=O)CCN1C(=O)c2ccccc2C1=O
  A = -1.1 | B = 1 | C = -8 | D = 11 | E = -2.8% | F = -0.3
> COC(=O)c1ccccc1OCCOCCOc1cccc2ccc(C)nc12
  A = 1.7 | B = -23 | C = -7 | D = -10 | E = 0.6% | F = 1.7
> CC1=NNC(=O)C1CCC(=O)N/N=C/C=C/c1ccccc1 (configuration not stated)
  A = 1.1 | B = 6 | C = -1 | D = -2 | E = 2.1% | F = -0.3
> Cc1nn(CCc2n[nH]c(=S)n2-c2ccc(F)cc2)c(C)c1[N+](=O)[O-]
  A = -0.1 | B = 3 | C = 4 | D = 0 | E = ? | F = 0.1
> C=CCn1c(SCc2c(C(=O)OC)sc(N)c2C(=O)OC)nnc1-c1ccc(Cl)cc1
  A = -5.1 | B = -8 | C = -4 | D = -17 | E = -1.6% | F = 3.3
> CCc1ccc(-c2nc(SCC(=O)N(C)C3CCS(=O)(=O)C3)n[nH]2)cc1 (configuration not stated)
  A = -0.1 | B = -1 | C = 10 | D = -2 | E = 3.6% | F = 0.7
> COc1cc(CN2CCN(c3ccc(C)cc3)CC2)cc([N+](=O)[O-])c1O
  A = -3.6 | B = -2 | C = -21 | D = -4 | E = 10%[38.3 µM] | F = 1.2
> COc1ccc(C)cc1S(=O)(=O)N1CCC(C(=O)NC2CCCC2)CC1
  A = -1.5 | B = -5 | C = -6 | D = 9 | E = 2.3% | F = -0.1
> CCCCCN(C(=O)CCC(=O)OCCOc1ccc(OCC)cc1)c1c(N)n(CCCC)c(=O)[nH]c1=O
  A = -4.1 | B = 3 | C = -14 | D = -3 | E = 2.5% | F = -1.1
> Cc1ccc2[nH]c3c(c2c1)CCc1cn[nH]c1-3
  A = 5.6 | B = -3 | C = 4 | D = -8 | E = -5.3%[38.3 µM] | F = 1.4
> CCOc1ccc(C(Nc2ccc(C)cc2)P2(=O)OCCCO2)cc1 (configuration not stated)
  A = -5.3 | B = 7 | C = 9 | D = -5 | E = -0.2% | F = -0.1
> CN1CCN(C(=O)/C(=C/c2cccs2)NC(=O)c2ccco2)CC1
  A = -5.7 | B = 5 | C = -13 | D = 4 | E = 0.8% | F = 0.0
> CC(C)CN(C(=O)CN1CCC(C)CC1)c1c(N)n(CC(C)C)c(=O)[nH]c1=O
  A = 4.8 | B = -4 | C = -9 | D = 3 | E = 0.4% | F = 0.8
> CCCOc1ccc(Cc2nc(N)nc(N)n2)cc1
  A = 0.0 | B = 3 | C = -4 | D = 2 | E = 9.2%[38.3 µM] | F = 0.2
> COc1cccc(NC(=O)CN(C)C(=O)c2ccc(-n3cncn3)c([N+](=O)[O-])c2)c1
  A = -1.5 | B = -20 | C = -4 | D = 4 | E = -0.5% | F = 0.7
> O=C(COC(=O)CCNS(=O)(=O)c1ccccc1)Nc1ccc(OC(F)F)cc1
  A = 0.3 | B = 8 | C = 0 | D = 29 | E = -0.1% | F = 0.5
> O=C(/C=C/c1ccc([N+](=O)[O-])cc1)OCC(=O)N1c2ccccc2Sc2ccccc21
  A = -7.0 | B = -1 | C = -1 | D = -19 | E = -0.7% | F = 0.5
> Clc1ccc(-c2nnc(-c3ccccc3)nc2N2CCSCC2)cc1
  A = -4.6 | B = -6 | C = -11 | D = -21 | E = 3.5% | F = -0.3
> Cc1ccc(S(=O)(=O)n2[nH]c(=O)c(CCO)c2C)cc1
  A = -0.7 | B = 6 | C = -1 | D = 9 | E = -1.7% | F = -0.2
> CC(C)(C)Cc1c(-c2ccc(Br)cc2)nc2ccc(Cl)cn12
  A = 8.1 | B = 10 | C = 4 | D = 2 | E = ? | F = -0.8
> CCCCNC(=O)Nc1nc2ccc(CC)cc2s1
  A = 7.4 | B = -8 | C = -3 | D = -1 | E = 5.7% | F = 1.2
> CN(C)S(=O)(=O)c1ccc2nc(NC(=O)c3cccnc3)sc2c1
  A = -2.4 | B = 0 | C = -12 | D = -6 | E = -0.4% | F = -0.6
> O=C(Nc1ccccc1N1CCOCC1)c1ccc2ccccc2n1
  A = -1.7 | B = 0 | C = -14 | D = 9 | E = -0.3% | F = 1.8

Retrieved by compound from above, 2 records:
Key to letters – A = D2 agonist; B = CtBP-E1A inh; C = D2 potentiator; D = Six1-Eya2 inh; E = PINK1 expr mod; F = TRPML1 agonist
> CCOc1ccc(C(Nc2ccc(C)cc2)P2(=O)OCCCO2)cc1 (configuration not stated)
  A = -5.3 | B = 7 | C = 9 | D = -5 | E = -0.2% | F = -0.1
> CN1CCN(C(=O)/C(=C/c2cccs2)NC(=O)c2ccco2)CC1
  A = -5.7 | B = 5 | C = -13 | D = 4 | E = 0.8% | F = 0.0

Rewritten with values under each structure: entries from further up.
Values run as follows: D2 agonist | CtBP-E1A inh | D2 potentiator | Six1-Eya2 inh | PINK1 expr mod | TRPML1 agonist
CC(C)(C)Cc1c(-c2ccc(Br)cc2)nc2ccc(Cl)cn12
    8.1 | 10 | 4 | 2 | ? | -0.8
CCCCNC(=O)Nc1nc2ccc(CC)cc2s1
    7.4 | -8 | -3 | -1 | 5.7% | 1.2
CN(C)S(=O)(=O)c1ccc2nc(NC(=O)c3cccnc3)sc2c1
    -2.4 | 0 | -12 | -6 | -0.4% | -0.6
O=C(Nc1ccccc1N1CCOCC1)c1ccc2ccccc2n1
    -1.7 | 0 | -14 | 9 | -0.3% | 1.8

(more compounds)
Key to letters – A = D2 agonist; B = CtBP-E1A inh; C = D2 potentiator; D = Six1-Eya2 inh; E = PINK1 expr mod; F = TRPML1 agonist
> COc1cccc(C(NC(C)=O)c2nc(-c3ccc(F)c(Cl)c3)cs2)c1 (configuration not stated)
  A = -3.3 | B = 2 | C = 0 | D = -12 | E = 2.0% | F = -0.6
> Cc1cc2ccccc2n1CCNC(=O)c1cccs1
  A = 11 | B = -21 | C = -4 | D = ? | E = 1.9% | F = 2.4
> O=C1CCN(Cc2ccccc2)CCN1[C@H](COc1ccccc1)c1ccccc1
  A = 8.5 | B = -5 | C = -16 | D = -11 | E = 10% | F = -0.5&-0.8
> COc1ccc(OCCNC(=O)Nc2cc(F)c(F)cc2Cl)cc1
  A = 1.9 | B = -3 | C = -5 | D = 2 | E = 6.4% | F = 1.5
> C/C(CC(=O)Nc1ccc(Br)cc1)=N\NC(=O)c1cccc(O)c1
  A = -1.2 | B = -2 | C = -5 | D = -1 | E = -0.6% | F = 0.5
> O=c1c(/C=N/O)coc2ccc3ccccc3c12
  A = -2.2 | B = -5 | C = 27 | D = -15 | E = -1.6% | F = 0.7
> Cc1cc(NC(=O)COC(=O)c2oc3c(ccc4ccccc43)c2C)no1
  A = -0.4 | B = 8 | C = -13 | D = 6 | E = 10% | F = -0.4

Part of the list above, limited to Six1-Eya2 inh and D2 potentiator:
| compound | Six1-Eya2 inh | D2 potentiator |
| --- | --- | --- |
| Cc1ccc2[nH]c3c(c2c1)CCc1cn[nH]c1-3 | -8 | 4 |
| CCOc1ccc(C(Nc2ccc(C)cc2)P2(=O)OCCCO2)cc1 (configuration not stated) | -5 | 9 |
| CN1CCN(C(=O)/C(=C/c2cccs2)NC(=O)c2ccco2)CC1 | 4 | -13 |
